# D2 agonist: Beta-Arrestin HTS for Positive Allosteric Modulators of the Human D2 Dopamine Receptor: Agonists | D(2) dopamine receptor (Homo sapiens), P14416 | DiscoveRx PathHunter D2 beta-arrestin, luminescence, 90 min; 100% = 57 uM dopamine signal | activation, % (concentration not given with the values) | actives 0.084% (n = 360,000); in the data active = activation above about 40%; inconclusive = about 15% to 40%; inactive = below about 15%; note: compound concentration not given in the record; the text of the record calls up to 30% inactive
# Target sequence (P14416 whole entry, looked up): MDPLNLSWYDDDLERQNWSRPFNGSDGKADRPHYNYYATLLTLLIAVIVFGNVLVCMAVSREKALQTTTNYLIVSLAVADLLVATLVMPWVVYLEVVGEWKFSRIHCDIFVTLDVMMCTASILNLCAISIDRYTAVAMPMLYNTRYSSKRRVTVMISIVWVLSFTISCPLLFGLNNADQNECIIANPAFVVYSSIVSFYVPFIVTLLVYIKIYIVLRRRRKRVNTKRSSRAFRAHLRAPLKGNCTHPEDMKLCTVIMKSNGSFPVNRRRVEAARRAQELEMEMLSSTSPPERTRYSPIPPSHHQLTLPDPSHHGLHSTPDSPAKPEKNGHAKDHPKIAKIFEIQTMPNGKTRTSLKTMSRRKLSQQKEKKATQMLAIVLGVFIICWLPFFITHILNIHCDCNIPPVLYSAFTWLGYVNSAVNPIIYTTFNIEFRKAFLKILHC
#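 Agonist mode: compounds alone added to overnight-plated D2 PathHunter cells for 90 min at 37 C, with 57 uM final dopamine (EC100) defining full response. Beta-arrestin recruitment detected by chemiluminescent reagent, read after 1 h at ambient temperature.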
# PINK1 expr mod: A Quantitative High throughput Screen to Identify Chemical Modulators of PINK1 Expression | PINK1 immunofluorescence, high-content cytometry, 24 h | Potency, µM (doses to about 76.6 µM), for inactives: top-dose activation (PINK1 increase), usual class: activators | actives 0.2% (n = 410,000); active = well fitted activation curve with a large enough effect; inconclusive = small, poorly fitted or top-dose-only effect; inactive = flat fitted curve, though single readings scatter; cell line not stated here;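 note: potency is the fitted concentration of half-maximal effect; % of control where 0% means no effect; nearly all actives have a fitted effect of over 65% in size; a mitochondrial uncoupler was the plate control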
#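 A stable cell line was treated with compounds at 5 concentrations for 24 hours, with CCCP as control. PINK1 levels and mitochondrial localization were measured by immunofluorescence with mitochondrial, cell and nuclear markers after fixation, read by laser-scanning cytometry.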
# gsp antag: qHTS for Antagonists of gsp, the Etiologic Mutation Responsible for Fibrous Dysplasia/McCune-Albright Syndrome: qHTS. gsp-mutant cells, cAMP HTRF, 30 min; control for the full effect not named in the record. Potency, µM (series often up to 76.9 µM), for the others: top-dose activity change, negative = inhibition, most hits filed as inhibitors. actives 0.4% (n = 340,000). AID 624288, 2012; active = falling curve of any shape with a large fitted effect; inconclusive = falling curve, mostly with a smaller effect; inactive = flat or rising curve; cell line not stated here;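 note: intracellular cAMP measured with PDE inhibitor Ro 20-1724 present during compound exposure; potency is the fitted concentration of half-maximal effect; % is set by controls: 0 for no effect and ±100 for the full control effect; nearly all actives have a fitted effect of over 65% in size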
#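 Cells, 2000/well, grown 16–24 h in DMEM 10% FBS with 0.5 mg/ml G418, then compounds plus […] (300 uM addition stock), 30 min at 37C. cAMP read by HTRF (cAMP-d2 and anti-cAMP antibody-K in lysis buffer) after 30 min RT.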
# Menin-MLL FL inh: qHTS Assay for Inhibitors Targeting the Menin-MLL Interaction in MLL Related Leukemias: Competition With Fluorescein Labeled MLL-derived Peptide; Fluorescence polarization, fluorescein-MLL peptide displacement from menin; FP activity change, % at 61.4 µM; 290,000 tested, under 10 active; AID 1766, 2009; inconclusive = falling polarisation curve, or a change in total fluorescence; inactive = total fluorescence flat and polarisation flat or rising; no compound was filed as active; the % refers to the polarisation; negative = inhibition;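 note: % of control where 0% means no effect; inhibitors lower the polarisation; unlabelled MLL peptide was the positive control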
# Sfp PPTase inh: qHTS Assay for Inhibitors of Bacillus subtilis Sfp phosphopantetheinyl transferase (PPTase). Potency, µM, inactives show max response, negative = inhibition, hits mostly inhibitors. actives 3.5% (n = 310,000). 4'-phosphopantetheinyl transferase ffp (Bacillus subtilis), Q9F4F7. Biochemical Sfp PPTase activity, qHTS. AID 1490, 2009; active = well fitted inhibition curve with a large enough effect; inconclusive = small, poorly fitted or top-dose-only effect, or another doubt; inactive = no such curve, though single readings can be large or run the other way;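 note: the enzyme is Sfp with the accession as filed and its product quenches rhodamine fluorescence; potency is the fitted concentration of half-maximal effect; 0% = enzyme reaction without inhibitor and -100% = no enzyme wells; top concentration of the series not given in the record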
#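 Reaction rates are the 30-min fluorescence difference (ex 525, em 598 nm) in wells containing 15 nM Sfp, 5 uM rhodamine-CoA and 12.5 uM BHQ-2-YbbR at pH 7.6 with 10 mM MgCl2.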
# ClpP mod: qHTS Assay for Activators of ClpP | purified B. subtilis ClpP, FRET peptide cleavage, 20 min | actives 1.9% (n = 340,000) | ATP-dependent Clp protease proteolytic subunit (Bacillus subtilis (strain 168)), P80244 | Potency, µM (doses to about 57.5 µM), without a hit: top-dose activity change, negative = active; active = well fitted falling curve with a large enough effect; inconclusive = small, poorly fitted or top-dose-only effect; inactive = no such curve, though single readings can be large or run the other way; note: potency is the fitted concentration of half-maximal effect; the source files actives as falling curves though it sought activators and does not explain the sign; nearly all actives have a fitted effect of over 65% in size; many hits overshoot -100%
# Target sequence (P80244 whole entry, looked up): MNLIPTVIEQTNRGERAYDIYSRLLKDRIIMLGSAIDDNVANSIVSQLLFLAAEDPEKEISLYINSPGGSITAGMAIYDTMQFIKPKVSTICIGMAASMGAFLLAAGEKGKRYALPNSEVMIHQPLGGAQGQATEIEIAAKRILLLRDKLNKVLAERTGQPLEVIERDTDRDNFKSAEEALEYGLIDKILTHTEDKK
#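 Purified B. subtilis ClpP, 10 microg/mL final in Tris/HCl pH8 with KCl, BSA, glycerol and Tween-20, cleaved an Abz/nitrotyrosine-quenched decapeptide. Fluorescence (ex 320, em 430) was read at 0 and 20 min at room temperature. Delta was normalized to 5.8 microM ADEP and DMSO/no-enzyme controls.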
# gsp agonist: qHTS for Agonist of gsp, the Etiologic Mutation Responsible for Fibrous Dysplasia/McCune-Albright Syndrome: qHTS; gsp mutant cells, cAMP HTRF, 30 min; control for the full effect not named in the record; Potency, µM (top dose mostly 76.9 µM), inactives show at the top dose activation (cAMP increase), hits mostly activators; actives 0.13% (n = 340,000); AID 624287, 2012; active = well fitted activation curve with a large enough effect; inconclusive = small, poorly fitted or top-dose-only effect, or another doubt; inactive = no such curve, though single readings can be large or run the other way; cell line not stated here;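 note: phosphodiesterase inhibitor Ro 20-1724 added with compounds to block cAMP breakdown; potency is the fitted concentration of half-maximal effect; nearly all actives have a fitted effect of over 60% in size; about a fifth of the inactives were tested at one dose only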
#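 Cells in DMEM/10% FBS with G418 were pretreated with compounds in DMSO plus […] (300 uM stock) for 30 min at 37C. cAMP was measured by HTRF (cAMP-d2 plus anti-cAMP antibody-K) after 30 min at room temperature.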
# * = called active by the depositor; u = inconclusive; x = no result given; & = joins results of further samples; [ ] = another dose, or the depositor's remark. Random draw from the library; overall some 5.1% were active at least once.
SMILES,D2 agonist,PINK1 expr mod,gsp antag,Menin-MLL FL inh,Sfp PPTase inh,ClpP mod,gsp agonist
CCSc1nnc(NC(=O)Cc2ccc(OC)cc2)s1,3.7,-0.2%,-1%,-1.3,11%,1.3%,-23%
COc1cccc(C(=O)N2CCN(Cc3ccccc3C(F)(F)F)CC2)c1,0.4,-1.4%,7%,5.4,56µM*,-1.2%,-41%[inhibitor]
O=C(COC(=O)CCc1ccc(S(=O)(=O)N2CCOCC2)cc1)NCc1ccc(Cl)cc1,4.7,6.1%,-1%,0.0,12%,x,u
CN(CC(=O)Nc1cccc(F)c1)C(=O)Cc1n[nH]c(=O)c2ccccc12,-5.1,1.4%,5%,x,x,-4.3%,18%
Cc1cc(NC(=O)c2ccc(Cl)cc2)cc(C)c1OCC(=O)N1CCOCC1,-0.2,0.3%,7%,x,9%,-1.1%,9%
CCOc1cc(C(N)=O)cc(Br)c1OCc1ccccc1,-7.6,2.6%,9%,-3.5,1%,0.9%,-1%
CCOC(=O)C1=C(CNCc2ccc(C)cc2)NC(=O)NC1c1ccc(OC)cc1 (stereo not drawn),-3.9,5.8%,1%,-3.5,5%,8.0%,10%
O=S(=O)(c1ccc(Br)s1)N1CCN(CCOc2ccccc2)CC1,11,0.4%,-21%,x,x,0.3%,4%
Cc1oc(/N=C/c2ccc(F)cc2)c(C#N)c1C,-2.0,1.0%,9%,7.3,5%,62%,-34%[inhibitor]
CC(C)[C@H](CO)Nc1nc(NCc2ccc(S(N)(=O)=O)cc2)c2ncn(C(C)C)c2n1,-3.6,-1.4%,10%,-4.3,1%,1.1%,17%
CCCCSc1nnc(CCC)n1N,-0.1,-3.4%,13%,6.9,10%,-3.3%,-22%
CC1C(=O)CCC1(C(=O)O)c1ccccc1 (stereo not drawn),-0.8,-2.1%,5%,4.8,20%,-2.5%,-25%
Cc1cccn2c(=O)nc(SCC(=O)NCCc3ccccc3)nc12,-4.3,-3.6%,5%,x,x,u,u
COc1cccc(N=C2CC(C)(C)CC(=O)/C2=C(/O)c2ccccc2)c1,-8.5,2.6%,-38%,0.2,15%,x,0%[15.4 µM]
CCOC(=O)c1c(C)[nH]c(C(=O)CN2C(=O)NC(C)(c3ccc(C)cc3)C2=O)c1C (stereo not drawn),1.4&0.2,0.2%,-8%,5.8,9%,-0.7%,17%
CCn1c(SCC(=O)NC2CCCC2)nnc1C(C)NC(=O)c1ccccc1F (stereo not drawn),1.0,-0.4%,9%,x,14%,-0.1%,-24%
CN(C)CC(c1ccccc1)c1ccccc1,-2.4,0.8%,14%,0.2,23%,x,1%[15.4 µM]
COc1ccc(OC2OC3COC(C)(C)OC3C(O)C2NC(C)=O)cc1 (stereo not drawn),0.2,-0.6%,8%,2.6,8%,-14%,-32%[inhibitor]
Cc1ccc(CS(=O)(=O)c2ncc(Cl)c(C(=O)Nc3ccc(OC(F)F)cc3)n2)cc1,-5.1,-1.4%,u,x,-20%,x,-7%[15.4 µM]
Cc1ccc(C(=O)N2CCC(C)CC2)cc1NC1=NC2CS(=O)(=O)CC2S1 (stereo not drawn),-6.5,2.7%,5%,-0.7,9%,1.5%,8%
CCNC(=O)CC1C(=O)N(c2ccc(OC)cc2)C(=O)N1CCOC (stereo not drawn),-1.9,0.0%,14%,0.4,20%,-1.5%,0%
O=C(c1cc2c(s1)CCCC2)n1cccn1,-4.7,u,16%,2.2,9%,-5.1%,-6%
CCn1c(NC)cc(=O)n(C)c1=O,-3.0,-0.9%,-4%,-0.1,11%,-0.8%,-10%
O=C(N/N=C/c1ccc(F)cc1)c1cccc(NC(=O)c2ccccc2Cl)c1,0.1,17%,-3%,2.3,25%,x,27%
CCc1ccc(CCC(=O)Nc2sc3c(c2C#N)CCCC3)o1,-0.5,15%[38.3 µM],5%,-2.4,-47%,-1.9%,4%
Cc1cc(C(=O)N2CC(C)CC(C)C2)n(-c2ccccc2)n1 (stereo not drawn),-3.7,3.2%,-5%,4.4,35%[activator],0.6%,-34%[inhibitor]
Cc1cc(NS(=O)(=O)c2ccc3c(c2)OCCO3)no1,-4.3,1.4%,-1%,0.1,12%,1.1%,-9%
CCCCN(CCCNC(=O)c1ccc(CS(=O)(=O)c2c(Cl)cccc2Cl)o1)Cc1ccccc1,-1.2,-2.1%,1%,x,9%,-0.2%,-20%
O=C(CSc1nnc(NC(=O)Cc2ccccc2)s1)NCc1ccco1,-0.5,0.9%,5%,0.4,0%,x,u
CCCc1cc(=O)oc2cc(OC(C)C(=O)NCCCn3ccnc3)ccc12 (stereo not drawn),0.3,-0.1%,15%,-0.5,11%,3.4%,-24%
Cc1cccc(C(=O)c2ccccc2C(=O)O)c1,-3.8,2.7%,9%,1.4,19%,-0.4%,-4%[15.4 µM]
O=C(CSc1nnc(Nc2ccccc2F)s1)NCc1ccco1,1.7,1.4%,-10%,0.1,-9%,-2.6%,u
CCCCn1c(N)c(N(CCC(C)C)C(=O)c2ccccc2C)c(=O)[nH]c1=O,3.8,0.3%,14%,-1.4,26%,x,-2%
COc1cc(F)ccc1-c1csc(C(O)c2ccccc2)n1 (stereo not drawn),-6.0,19%,x,x,x,-5.0%,x
O=c1ccc(-c2n[nH]c(=S)n2-c2ccc(F)c(Cl)c2)n[nH]1,7.2,-0.6%,-16%,-5.9,-9%,x,u
CC1(C)C2CCC1(CS(=O)(=O)NCc1ccc(S(N)(=O)=O)cc1)C(=O)C2 (stereo not drawn),-4.2,0.0%,11%,2.0,12%,0.4%,3%[15.4 µM]
Cc1cc(C)c(S(=O)(=O)NCCCN2CCOCC2)cc1Br,-0.1,-1.4%[38.3 µM],0%,-0.6,16%,0.5%,-31%[inhibitor]
O=Nc1[nH]c(=O)c(/C=C(\O)c2ccccc2)nc1NO,-0.4,3.3%,-7%,4.0,27%,-0.8%,-4%[15.4 µM]
CCOc1ccc(C(=O)Nc2ccc3c(c2)OCCO3)cc1,2.1,2.0%,-12%,5.1,4%,x,2%
COc1ccc(NC(=O)/C=C/c2ccc(F)cc2)cn1,2.5,5.2%,8%,-0.6,-3%,0.2%,-3%[15.4 µM]
COc1cc(C(=O)Nc2cccc(-c3nc4cc(C)ccc4o3)c2C)cc(OC)c1OC,-0.4,8.6%,11%,3.4,18%,-18%,-15%
CC1CCCCC1NC(=O)CN1CCC(NC(=O)c2cccc(F)c2)CC1 (stereo not drawn),-2.4,2.0%,-3%,-1.8,15%,0.2%,-3%[15.4 µM]
O=C(Nc1cc(Cl)ccc1N1CCOCC1)C1=COCCO1,-3.2,1.1%,-10%,x,x,0.8%,u
O=C(OCC(=O)N1CCOCC1)c1cc(S(=O)(=O)N2CCOCC2)c(Cl)cc1Cl,-3.9,3.8%,-11%,x,x,0.1%,4%
Cc1cc(C(O)c2ncc(-c3ccccc3C)[nH]2)ccc1F (stereo not drawn),-5.3,1.2%,x,x,x,0.1%,x
CCCCN1C(N)=NC[C@H]1Cc1ccc(O)cc1,-5.1,-0.3%,7%,-3.5,-13%,-3.3%,x
Cc1[nH]c2ccccc2c1/C=N/NC(=O)CNC(=O)c1ccccc1,-0.5,1.4%,-1%,1.4,-4%,x,27%
Cc1ccc(NC(=O)C2CCN(S(=O)(=O)c3cccnc3)CC2)cc1C,3.8,0.1%,-5%,-0.7,11%,0.4%,2%
COc1ccc(-c2ccc3oc(-c4ccc(OC)cc4)c(C#CCO)c3c2)cc1,-2.4,6.4%,-3%,x,x,4.0%,x
CCN(c1cccc(C)c1)S(=O)(=O)c1ccc2c(c1)N(C(C)=O)CCS2,-0.7,0.7%,-15%,x,20%,1.8%,29%
Cc1cccc(NC(=O)c2ccc(C)c(S(=O)(=O)N3CCCCC3)c2)n1,-4.4,2.6%,-25%,x,x,-1.2%,-48%[inhibitor]
CSc1nc(-c2ccccc2)nn1S(=O)(=O)c1ccc(Cl)cc1,0.8,9.6%[38.3 µM],-1%,-6.5,10%,1.1%,0%
Cc1c(Cl)cccc1NS(=O)(=O)c1cccc2nsnc12,-3.7,3.5%,-31%,-1.0,6%,-0.2%,0%[15.4 µM]
CCCN(C(=O)CSCc1c(C)noc1C)c1c(N)n(Cc2ccccc2)c(=O)[nH]c1=O,-1.4,1.4%,7%,x,x,x,8%[15.4 µM]
Oc1ccc(Cl)cc1CNCc1ccc(Cl)cc1,0.3,3.6%,2%,x,x,0.6%,x
O=C(CN1C(=O)NC2(CCCCCCC2)C1=O)Nc1cccc(Br)c1,0.1,6.5%,2%,x,x,-1.4%,1%
CCN1C(=NCC2CC2)N[C@@H](c2cccc(C(F)(F)F)c2)C(C(=O)OC)=C1C,2.1,3.9%,3%,1.5&-0.6,15%&-10%,-1.2%,x
COc1ccc(C2NC(=O)N(C)C3=C2C(=O)CC(C)(C)C3)cc1OC (stereo not drawn),-0.7,-1.1%,2%,5.2,9%,-0.8%,-26%
Cn1cccc1/C=C1\SC(=S)N(NC(=O)c2cccc(Cl)c2)C1=O,-9.1,-1.5%,-5%,u,-24%,266%,5%[15.4 µM]

# 3 of the entries above in order of the gsp antag value, largest number first:
SMILES	D2 agonist	PINK1 expr mod	gsp antag	Menin-MLL FL inh	Sfp PPTase inh	gsp agonist
COc1ccc(NC(=O)/C=C/c2ccc(F)cc2)cn1	2.5	5.2%	8%	-0.6	-3%	-3%[15.4 µM]
O=C(CSc1nnc(NC(=O)Cc2ccccc2)s1)NCc1ccco1	-0.5	0.9%	5%	0.4	0%	u
CCSc1nnc(NC(=O)Cc2ccc(OC)cc2)s1	3.7	-0.2%	-1%	-1.3	11%	-23%
